Ab BasE inh = BasE siderophore biosynthesis inhibition. inhibition, % (concentration not given with the values). AID 485350. purified BasE, fluorescence polarization binding displacement. actives 0.1% (n = 84,000);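 active = both replicates above 25% with normal brightness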;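 also: 0% = negative plate control signal and 100% = positive plate control signal; stock transfer was 100 nL into about 30 µL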
LANA-nucl inh = inhibitors of KSHV LANA binding to nucleosomes. z-score (concentration not given with the values). FITC-LANA1-23 / chicken nucleosome fluorescence polarization; stronger effect = lower value. AID 720717. actives 0.3% (n = 51,000);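 active = both repeat wells score below -2 in polarization z-score versus plate sample wells, excluding overly bright wells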;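 also: 100 nL library stock added to about 30 µL; numbers are from one replicate; some results filed as inactive read as strong as hits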
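Material: Purified chicken nucleosomes with FITC-labelled LANA N-terminal peptide (1-23) | Reagent: 50 nM FITC-LANA1-23 probe | Medium: TEN-BT buffer, pH 7.5 | Times: 10–45 min incubation at room temperature | Detection: Fluorescence polarization | Replication: Duplicates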
Active calls of the source: *; . = no result given; & = joins results of further samples. An excerpt; count on the stated rates, not on these rows.

A first look (three entries):
SMILES	Ab BasE inh	LANA-nucl inh
O=C(Cn1cnc2ccccc2c1=O)c1ccc2c(c1)OCCO2	-9.6	.
CN(CCC#N)C(=O)c1cc2cccnc2n(Cc2ccccc2)c1=O	3.3	-0.24
Cc1sc(NC(=S)NC(=O)c2ccco2)c(C#N)c1C	1.9	-0.87

Results, repeating the preview:
SMILES	Ab BasE inh	LANA-nucl inh
O=C(Cn1cnc2ccccc2c1=O)c1ccc2c(c1)OCCO2	-9.6	.
CN(CCC#N)C(=O)c1cc2cccnc2n(Cc2ccccc2)c1=O	3.3	-0.24
Cc1sc(NC(=S)NC(=O)c2ccco2)c(C#N)c1C	1.9	-0.87
NC(Cc1nc2ccccc2[nH]1)c1cccnc1 (stereo unspecified)	-0.2	0.77
O=C(Nc1ccncc1)c1ccc2c(c1)S(=O)(=O)c1ccccc1C2=O	0.5	.
Cc1csc(=Nc2ccc(Cl)c(Cl)c2)n1CCCN1CCCC1=O	-0.1	.
C[N+](C)(C)[C@@H](Cc1c[nH]c(=S)[nH]1)C(=O)[O-]	.	-0.048
Cc1ccc2cc3cc(C(=O)Nc4cccc(Cl)c4)oc3nc2c1	-8.4	-0.57
Cc1cc(C)cc(N2CC(c3nc4ccccc4n3C(C)C)CC2=O)c1 (stereo unspecified)	0.8	1
CCOc1cc(/C=N\NC(=O)Cn2c(-c3nonc3N)nc3ccccc32)cc(I)c1OC	-1.4	0.79
CC1=C(C#N)C(=O)N(CC(C)O)C(=O)/C1=C/c1ccc(-c2ccc(Cl)cc2)o1 (stereo unspecified)	-1.0	-0.025
CN(C)c1ccc(CNc2ccc3c(c2)ncn3-c2ccccc2)cc1	1.0	.
Cc1ccc(Cl)cc1N1CCN(C(=O)CCCCCn2c(=S)[nH]c3cc4c(cc3c2=O)OCO4)CC1	-1.3	-0.6
NC(=O)C1CCN(C(=O)/C(=C/c2ccco2)NC(=O)c2ccccc2)CC1	0.7	.
CCC(Sc1nc2c(cc1C#N)CCCCC2)C(=O)Nc1cc(C)on1 (stereo unspecified)	1.6	.

Part of the list above in another layout:
Fields: Ab BasE inh	LANA-nucl inh
- O=C(Nc1ccncc1)c1ccc2c(c1)S(=O)(=O)c1ccccc1C2=O
    0.5	.
- Cc1csc(=Nc2ccc(Cl)c(Cl)c2)n1CCCN1CCCC1=O
    -0.1	.

(continued)
SMILES	Ab BasE inh	LANA-nucl inh
Cc1nnc(COC(=O)CNC(=O)c2ccc(C(F)(F)F)cc2)o1	0.5	.
COCCCNc1nc2ccc(C)cc2n2nnnc12	-1.9	0.71
CCN1CCN(C(=O)CS(=O)Cc2nc(-c3ccc(OC)cc3)oc2C)CC1 (stereo unspecified)	-0.9	-0.24
CCOC(=O)c1ccc(N2C(=O)CC(N3CCN(C/C=C/c4ccccc4)CC3)C2=O)cc1 (stereo unspecified)	-2.3	0.3
O=C(Oc1ccc2oc3c(c2c1)CCCC3)c1cccs1	3.0	0.23
CCOC(=O)C1CCCN(C2CC(=O)N(c3cc(Cl)ccc3OC)C2=O)C1 (stereo unspecified)	0.8	.
Cc1ccc2c(c1)n([O-])c1c([n+]2=O)CCCC1	-0.2	1.1
CCSc1nsc(NC(=O)Nc2cccc(F)c2)n1	2.7	-0.4
Cc1nc(COc2cccc(Cl)c2)sc1-c1ccnn1C(=O)C1CC1	0.6	0.64
CNC(=S)Nc1ccc(C(=O)OC)cc1	-1.8	1.7
Cc1ccc(C(=O)NC(c2ccccc2)c2ccccc2)o1	0.4	.
C=CCn1cc(C=C2C(=O)OC(c3ccccc3)OC2=O)c2ccccc21 (stereo unspecified)	3.0	.
CCN(CC)C(=O)CCn1nc(-c2ccc(C)cc2)c2ccccc2c1=O	17	.
CN1C(=O)CC(NCc2ccc(S(N)(=O)=O)cc2)C1=O (stereo unspecified)	0.4	0.46
Cc1sc2ncnc(N(C)Cc3ccco3)c2c1C	0.5	.
NS(=O)(=O)c1ccc(CCNC(=O)CCCn2ncn3c(cc4occc43)c2=O)cc1	-2.0	0.11
Cc1cc2[nH]c(=O)[nH]c2cc1S(=O)(=O)N1CCOCC1	-1.8	-0.12
COc1cc2c(cc1OC)C(c1ccccc1)N(C(=O)C(C)(C)C)CC2 (stereo unspecified)	1.5	.
Nc1nnc(SCC(=O)OCc2ccccc2)s1	0.3	.
COC(=O)CSc1nnc(CNc2ccc(Cl)cc2)n1-c1ccc(OC)cc1	-0.5	-0.44
CC(=O)N(C)c1ccc(N=Cc2ccc(O)cc2)cc1	0.7	-0.79
Cc1c(NS(=O)(=O)c2cc(Br)cc3c2N(C(=O)C2CC2)CC3)c(=O)n(-c2ccccc2)n1C	0.1	-0.49
C/C(=N\O)c1cc2cc(Cl)ccc2oc1=O	-0.2	.
CN(Cc1cccs1)C(=O)Cc1ccc2c(c1)OCCO2	0.9	.
O=C(OCn1nnc2ccccc2c1=O)C1CCCCN1S(=O)(=O)c1ccccc1 (stereo unspecified)	0.5	.
CC1(C)C2CC[C@]3(C)C(C(=O)C=C4[C@@H]5C[C@@](C)(C(=O)O)CC[C@]5(C)CC[C@]43C)[C@@]2(C)CC[C@@H]1O (stereo partly specified)	-2.5	-0.89
CCC(=O)NCc1cc(-c2nn(C)c(=O)c3ccccc23)ccc1OC	-1.8	1.3
CC(C1CC1)N(CC(F)(F)F)C(=O)c1cc(S(=O)(=O)N(C)C)ccc1N1CCCC1 (stereo unspecified)	2.3	.
N#C/C(=C\C1=C(N2CCOCC2)C(=C\c2ccccc2)/CC1)c1nnc2n1CCCCC2	6.5	.
O=C1COc2ccc(N3Cc4ccccc4C3)cc2N1	.	-0.55
CCOC(=O)c1c(Sc2ccccc2)cnn1C(=O)c1ccc(C(F)(F)F)cc1	2.3	.
CN1C(=O)c2ccc(-c3ccc(C=C4C(=O)NC(=O)NC4=O)o3)cc2C1=O	1.3	0.11
CN(C)CCNC(=S)Nc1ccc(F)c(Cl)c1	2.7	-1.5
Cc1ccc(-n2nc(C)c(/C=N/NC(=O)Cc3nc4ccccc4n3C)c2Cl)cc1	-0.6	.
CC(C)COC(=O)N1c2ccccc2C=CC1OCC(C)C (stereo unspecified)	-0.5	.
O=C(CSc1nnc(-c2cccnc2)o1)NCCc1ccccc1	0.0	-0.88
Cn1c(CSc2cc(C(F)(F)F)nc3ccccc23)n[nH]c1=S	2.3	.
CCOC(=O)c1ccc2nc(C)c(CC)c(Cl)c2c1	1.6	0.24
Cn1c(C(O)c2ccccc2)nc(Cl)c1Cl (stereo unspecified)	-0.1	0.3
CC(=O)n1c2ccccc2c2cc(Br)ccc21	2.0	.
COc1cccc(OC)c1C(=O)N1CCN(Cc2cccc3ccccc23)CC1	-0.6	-1
O=C(O)CCc1ccc(-c2cccs2)[nH]1	-1.0	-0.44
O=C(Nc1ccc(Cl)cc1)O/N=C1\CCCCC1Cn1ccnc1 (stereo unspecified)	-2.3	0.69
OC(c1cc(C(F)(F)F)nc2c(C(F)(F)F)cccc12)C1CCCCN1 (stereo unspecified)	-3.2&2.7	-0.69&-0.6&-0.09
CCC(C)NS(=O)(=O)c1ccc(OC)c(OC)c1 (stereo unspecified)	0.2	0.092
NC(=O)c1ncoc1-c1ccccc1Cl	4.2	0.62
O=C(Nc1nnc(SCc2ccccn2)s1)C1CC(=O)N(c2ccccc2)C1 (stereo unspecified)	-6.0	2.2
CCNS(=O)(=O)c1cccs1	1.4	-0.29
CSc1cccc(NC(=O)CSc2nc3ccccc3o2)c1	2.9	.
CCOC(=O)N1CCN(C(=O)c2ccc3c(c2)N(C)C(=O)/C(=C/c2ccc(OC)cc2)S3)CC1	-1.7	-0.037
COc1ccc(CCNC(=O)CN2N=C(c3ccc(C)cc3)CCC2=O)cc1OC	-2.4	0.21
CN1C(N)=NC(=O)/C1=C/c1cccnc1	2.3	.
CN1CCN(C(=O)CSc2c(-c3ccccc3)c3cc(Cl)ccc3[nH]c2=O)CC1	0.6	.
CCOC(=O)C1=NN(c2ccccc2OC)C2C(=O)N(c3ccc(Br)cc3)C(=O)C12 (stereo unspecified)	0.5	-0.04
COc1ccc(NC(=O)c2cc(CN3C(=O)c4ccccc4C3=O)ccc2OC)cn1	4.0	.
CNC(=S)N(Cc1ccccc1)Cc1cccnc1	0.3	-0.045
CC(C(=O)Nc1ccccc1)N(C)CCOc1ccccc1 (stereo unspecified)	2.7	.
O=C(Nc1cccnc1)c1cc(-c2ccco2)on1	0.8	-0.52
C=CCN(C(=O)Nc1ccccc1)C1CC(=O)N(c2ccc(OC)cc2)C1=O (stereo unspecified)	1.9	-0.018
CCCOc1ccc(/C=C(\C#N)C(=O)NC(N)=O)cc1OCC	-4.8	.

Later entries
SMILES	Ab BasE inh	LANA-nucl inh
CCCCn1c(N)c(N(CC)C(=O)c2ccccc2)c(=O)[nH]c1=O	0.4	.
CN1c2ccccc2N(C)C1c1cccs1	2.1	-0.41
CC(C)C(NC(=O)c1ccc(F)cc1)C(=O)N1CCC1 (stereo unspecified)	-0.3	.
CCn1c(N)c(N(C)CCOc2ccccc2)c(=O)[nH]c1=O	-1.3	.
O=C(Nc1ccc(F)cc1)Nc1ccc(N2CCOCC2)c2nonc12	1.0	0.46
N=c1c2c(n(Cc3ccc(F)cc3)c3c1CCC3)CCC2	-4.4	0.72
c1ccc2nc(N3CCOCC3)cnc2c1	.	-0.049
C=CCNC(=O)c1ccc2c(=O)n(C3CCCC3)c(=S)[nH]c2c1	-3.2	2.6
Cc1cc2nc(N3CCC(C)CC3)c3ccccc3n2n1	1.9	.
O=C(CSc1nnc(-c2cc3ccccc3[nH]2)n1-c1ccccc1)NC1CCS(=O)(=O)C1 (stereo unspecified)	-0.4	.
NC(=O)c1ccc(NC(=O)Cn2ccc(C(F)(F)F)n2)cc1	-1.3	.
COc1ccc(OCCN2C(=O)c3ccccc3S2(=O)=O)cc1	0.2	.
Cc1cc(C(=O)NN2CCOCC2)cs1	-1.8	1.3
OC(COc1ccc(-c2csnn2)cc1)CN1CCN(C(c2ccccc2)c2ccccc2)CC1 (stereo unspecified)	1.3	.
O=S(=O)(c1ccccc1)N1CCc2ccccc21	-4.0	-1.1
COc1cc(CN(CCN(C)C)Cc2ccccc2)cc(OC)c1	-0.8	0.61
CC(C)CNC(=O)c1cc(-c2ccccc2F)no1	-0.5	-1.3
Cc1ccc(-c2csc(NC(=O)COC(=O)c3cccs3)n2)cc1	-0.3	.
CCCn1c(SCC(=O)NCC(F)(F)F)n[nH]c1=O	1.4	.
O=C1CCC2(C(=O)OCc3c(Cl)cccc3Cl)N1c1ccccc1C(=O)N2C1CC1 (stereo unspecified)	-0.6	.
CC1(C)CC(=S)C=C(N2CCCCC2)C1	0.1	.
CC1(C)Cc2c(sc3ncn4nc(COc5ccc(Cl)cc5)nc4c23)C(C)(C)N1	-0.8	.
O=C(NC1CCCC1)c1cc(=O)[nH]c2ccccc12	-1.8	0.077
CCCN(CCC)C(=O)c1cc(Cl)ccc1OC	2.1	-0.13
CC1Cc2ccccc2N1C(=O)Cn1nnc(-c2ccccc2F)n1 (stereo unspecified)	-1.6	-0.4
Cc1ccc(NC(=O)N2CCOc3ccc(Cl)cc32)c(C)c1	0.5	0.081
CC(C)N(C(=O)COc1c(CO)cc(Br)cc1CO)c1ccccc1	-1.7	.
CCOCc1cc(-c2csc(N)n2)ccc1OC	1.6	.
O=C1NC2(CCCCC2)C(=O)N1c1ccc(C(F)(F)F)cc1	0.9	-0.93
O=C1NC(=O)C(CCCCO)N1 (stereo unspecified)	-2.7	1.4

Structures from the list above that contain a COOH group:
SMILES	Ab BasE inh	LANA-nucl inh
CC1(C)C2CC[C@]3(C)C(C(=O)C=C4[C@@H]5C[C@@](C)(C(=O)O)CC[C@]5(C)CC[C@]43C)[C@@]2(C)CC[C@@H]1O (stereo partly specified)	-2.5	-0.89
O=C(O)CCc1ccc(-c2cccs2)[nH]1	-1.0	-0.44

The listing continues.
SMILES	Ab BasE inh	LANA-nucl inh
CCOC(=O)Cc1csc(SCn2nnc3ccccc3c2=O)n1	-0.4	.
CN1C(=O)Cc2cc(S(=O)(=O)N3CCc4ccccc43)ccc21	0.0	-0.66
CCOC(=O)c1cn2ccccc2c1C(=O)OCC	.	-0.12
Cc1[nH]c(C)c(S(=O)(=O)NCCc2ccccc2)c1C(=O)N1CCCC1	1.6	-0.15
CC1CCc2c(sc3nc(CN4CCCC4)[nH]c(=O)c23)C1 (stereo unspecified)	-2.1	.
CS(=O)(=O)Nc1ccccc1C(=O)NC1CCCC1	1.4	-1.8
CN1CCN(C(CC(=O)Nc2cccc3ccccc23)C(=O)O)CC1 (stereo unspecified)	-1.0	-0.051
CC(C)N(C(=O)CSc1nncn1-c1ccccc1)c1ccccc1	1.9	.
CCOC(=O)c1ccc(CSc2n[nH]c(C)n2)o1	0.1	.
O=C(Nc1ccccc1N1CCCC1)c1ccc(CSc2ncn[nH]2)cc1	-0.4	.
Cc1ccccc1Nc1c(N)c(=O)oc2ccccc12	-0.9	1.2
Cc1ccc(O)c(C(=O)c2cnc3c(c2)CN(CCC(C)C)C(=O)N3)c1	-1.9	.
CCOc1ncccc1C(=O)Nc1cc(C(C)(C)C)ccc1OC	1.0	.
CCOC(=O)C1=CN(c2ccc(C)cc2)C=C(C(=O)OCC)C1c1cccs1	2.0	.
CN(C)CCCn1cc(C2=C(c3c[nH]c4ccccc34)C(=O)NC2=O)c2ccccc21	-12	2.8
CC(NC=O)c1nc2ccccc2n1Cc1ccccc1 (stereo unspecified)	1.6	-0.72
N#Cc1ccc(OCC(=O)Nc2ccc(-c3cn4ccsc4n3)cc2)cc1	1.6	.

Random excerpt: 4 compounds from above
SMILES	Ab BasE inh	LANA-nucl inh
O=C(Nc1ccccc1N1CCCC1)c1ccc(CSc2ncn[nH]2)cc1	-0.4	.
CC1CCc2c(sc3nc(CN4CCCC4)[nH]c(=O)c23)C1 (stereo unspecified)	-2.1	.
Cc1ccc(O)c(C(=O)c2cnc3c(c2)CN(CCC(C)C)C(=O)N3)c1	-1.9	.
Cc1ccccc1Nc1c(N)c(=O)oc2ccccc12	-0.9	1.2

From PubChem
